# Bioassay records from PubChem BioAssay.
# Menin MLL FP FL: displaces fluorescein MLL peptide from human menin. AID 1766. FP activity change, % at 61.4 µM. Fluorescence polarization, fluorescein-MLL peptide displacement from menin. 290,000 tested, under 10 active; inconclusive = falling polarisation curve, or a change in total fluorescence; inactive = total fluorescence flat and polarisation flat or rising; no compound was filed as active; the % refers to the polarisation; negative = inhibition;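 further: % of control where 0% means no effect; inhibitors lower the polarisation; unlabelled MLL peptide was the positive control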
# gsp agonist: activates gsp, the McCune-Albright syndrome mutation. Potency, µM (doses to about 76.9 µM), inactives show at the highest dose activation (cAMP increase), actives largely listed as activators. gsp mutant cells, cAMP HTRF, 30 min; control for the full effect not named in the record. 0.13% of 340,000 active; active = well fitted activation curve with a large enough effect; inconclusive = small, poorly fitted or top-dose-only effect, or another doubt; inactive = no such curve, though single readings can be large or run the other way; cell line not stated here;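 further: phosphodiesterase inhibitor Ro 20-1724 added with compounds to block cAMP breakdown; potency means the concentration at half of the fitted maximal effect; nearly all actives have a fitted effect of over 60% in size; about a fifth of the inactives were tested at one dose only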
#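 Cells stably selected in G418 were plated at 2000/well, grown 16-24 hr, then given compounds in DMSO with the PDE inhibitor […] (300 uM solution added) for 30 min at 37C; cAMP was read by HTRF.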
# ClpP mod: qHTS Assay for Activators of ClpP; ATP-dependent Clp protease proteolytic subunit (Bacillus subtilis (strain 168)), P80244; purified B. subtilis ClpP, FRET peptide cleavage, 20 min; Potency, µM (series often up to 57.5 µM), inactives show at the highest dose activity change, negative = active; 1.9% of 340,000 active; active = well fitted falling curve with a large enough effect; inconclusive = small, poorly fitted or top-dose-only effect; inactive = no such curve, though single readings can be large or run the other way; further: potency means the concentration at half of the fitted maximal effect; the source files actives as falling curves though it sought activators and does not explain the sign; nearly all actives have a fitted effect of over 65% in size; many hits overshoot -100%
# Target sequence (P80244 whole entry, looked up): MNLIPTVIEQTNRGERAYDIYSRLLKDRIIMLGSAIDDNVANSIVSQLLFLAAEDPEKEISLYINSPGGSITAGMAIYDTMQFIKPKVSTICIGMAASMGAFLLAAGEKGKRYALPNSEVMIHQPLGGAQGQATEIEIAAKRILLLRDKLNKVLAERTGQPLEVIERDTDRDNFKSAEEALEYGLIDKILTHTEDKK
#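 Buffer: 100 mM Tris/HCl pH8, 100 mM KCl, 0.05% low protease BSA, 2.5% glycerol, 0.01% Tween-20. ClpP 10 microg/mL final; 20 min RT; delta FRET normalized to ADEP and DMSO controls.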
# Sfp PPTase inh: Sfp phosphopantetheinyl transferase inhibition; Biochemical Sfp PPTase activity, qHTS; 3.5% of 310,000 active; AID 1490; Potency, µM, without a hit: max response, negative = inhibition, usual class: inhibitors; active means well fitted inhibition curve with a large enough effect; inconclusive means small, poorly fitted or top-dose-only effect, or another doubt; inactive means no such curve, though single readings can be large or run the other way;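 further: the enzyme is Sfp with the accession as filed and its product quenches rhodamine fluorescence; potency means the concentration at half of the fitted maximal effect; 0% = enzyme reaction without inhibitor and -100% = no enzyme wells; top concentration of the series not given in the record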
#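 Compounds were incubated with enzyme (final 15 nM) for 15 min at room temperature before substrate addition started the reaction. Fluorescence at 525 nm excitation, 598 nm emission was recorded immediately and after 30 minutes.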
# gsp antagonist: antagonizes gsp, the McCune-Albright syndrome mutation; 0.4% of 340,000 active; AID 624288; gsp-mutant cells, cAMP HTRF, 30 min; control for the full effect not named in the record; Potency, µM (series often up to 76.9 µM), for inactives: top-dose activity change, negative = inhibition, actives largely listed as inhibitors; active = falling curve of any shape with a large fitted effect; inconclusive = falling curve, mostly with a smaller effect; inactive = flat or rising curve; cell line not stated here;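 further: intracellular cAMP measured with PDE inhibitor Ro 20-1724 present during compound exposure; potency means the concentration at half of the fitted maximal effect; on the % scale 0 is the no-effect control and ±100 the full control effect; nearly all actives have a fitted effect of over 65% in size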
#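 Cells in G418 medium, seeded 16-24 h, 37C; buffer exchange to DPBS + 1 mM CaCl2, 0.5 mM MgCl2, 0.05% BSA; cpds in DMSO + […] (300 uM stock), 30 min 37C; HTRF cAMP detection.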
# D2 agonist: activates the human D2 dopamine receptor; DiscoveRx PathHunter D2 beta-arrestin, luminescence, 90 min; 100% = 57 uM dopamine signal; activation, % (concentration not given with the values); 0.084% of 360,000 active; in the data active = activation above about 40%; inconclusive = about 15% to 40%; inactive = below about 15%; further: compound concentration not given in the record; the text of the record calls up to 30% inactive
# Target sequence (P14416 whole entry, looked up): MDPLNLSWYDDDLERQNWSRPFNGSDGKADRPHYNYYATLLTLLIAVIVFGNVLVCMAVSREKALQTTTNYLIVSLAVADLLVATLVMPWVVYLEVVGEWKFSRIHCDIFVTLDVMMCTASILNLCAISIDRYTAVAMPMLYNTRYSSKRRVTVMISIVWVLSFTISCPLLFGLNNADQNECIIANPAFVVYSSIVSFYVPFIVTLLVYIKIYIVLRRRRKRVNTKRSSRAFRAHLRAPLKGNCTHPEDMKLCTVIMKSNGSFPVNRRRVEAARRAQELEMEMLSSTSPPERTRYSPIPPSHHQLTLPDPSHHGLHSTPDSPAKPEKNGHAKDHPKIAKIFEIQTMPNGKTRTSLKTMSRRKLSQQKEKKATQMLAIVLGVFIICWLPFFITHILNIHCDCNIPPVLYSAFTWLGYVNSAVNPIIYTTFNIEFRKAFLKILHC
#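 DiscoveRx PathHunter D2 beta-arrestin cells (2,100/well) attached overnight, then compound-stimulated 90 min at 37 C in HBSS/10 mM HEPES/0.1% Tween-20 buffer; beta-galactosidase complementation read by luminescence after 1 h at ambient temperature. Dopamine 57 uM final (EC100) as control.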
# PINK1 modulator: changes PINK1 expression; 0.2% of 410,000 active; Potency, µM (top dose mostly 76.6 µM), for the others: top-dose activation (PINK1 increase), hits mostly activators; AID 624263; PINK1 immunofluorescence, high-content cytometry, 24 h; active = well fitted activation curve with a large enough effect; inconclusive = small, poorly fitted or top-dose-only effect; inactive = flat fitted curve, though single readings scatter; cell line not stated here;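 further: potency means the concentration at half of the fitted maximal effect; % of control where 0% means no effect; nearly all actives have a fitted effect of over 65% in size; a mitochondrial uncoupler was the plate control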
#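 A stable cell line was treated with compounds at 5 concentrations for 24 hours, with CCCP as control. PINK1 levels and mitochondrial localization were measured by immunofluorescence with mitochondrial, cell and nuclear markers after fixation, read by laser-scanning cytometry.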
# The depositor's hits bear a star; ? = inconclusive; . = not tested or not shown; & = joins results of further samples; [ ] = another dose, or the depositor's remark. Rows are unselected. Share with any hit: about 5.1%.
SMILES,Menin MLL FP FL,gsp agonist,ClpP mod,Sfp PPTase inh,gsp antagonist,D2 agonist,PINK1 modulator
Cc1ccc(-c2ccnc3c(Br)c(C)nn23)cc1,7.8,-47%[inhibitor],0.0%,-8%,-15%,0.7,1.8%
COC(=O)[C@H](Cc1ccccc1)NC(=O)NCCc1ccc(S(N)(=O)=O)cc1,0.9,-63%,0.6%,7%,8%,-0.5,3.2%
O=C(O)c1cc(-c2cccs2)[nH]n1,-0.5,?,.,12%,9%,8.0,-3.1%
CCC(=O)Nc1ccc2c(c1)OCCO2,2.0,1%,0.1%,18%,17%,0.2,0.5%
CCOC(=O)CNS(=O)(=O)c1cc(-c2nnc(Nc3ccc4c(c3)OCO4)c3ccccc23)ccc1C,-2.4,-8%[15.4 µM],-3.9%,-1%,?,-3.0,0.2%
COc1ccc([N+](=O)[O-])cc1NC(=O)c1cccs1,0.0,-20%,.,-7%,-10%,-2.7,-1.7%
O=[N+]([O-])c1ccc(S(=O)(=O)NCCN2CCOCC2)cc1,-3.4,0%[15.4 µM],.,9%,7%,2.5,1.1%
O=C(O)C(Cc1ccccc1)N1C(=O)c2ccccc2C1=O (stereo not drawn),-3.3,-7%,-0.8%,36%[activator],10%,-3.0,-0.4%
O=C(O)C1C2C=CC(C2)C1C(=O)NCCCN1CCOCC1 (stereo not drawn),0.4,17%,1.1%,1%,-3%,-3.1,-2.0%
COc1ccc(COc2cc(-c3cccc(OC)c3)nc3ccc(N)cc23)cc1,6.7&-1.1,9%,3.9%,-11%&-4%,-1%,4.3,1.4%
COCCCNC(=O)CCCC(=O)NCCCOC,0.9,7%,-0.7%,-6%,16%,-3.4,2.6%
Nc1ncc2c(n1)-c1ccoc1CC2,-15,16%[15.4 µM],-3.1%,-21%,8%,-4.0,-2.6%
CC(C)(C)c1nc2c(s1)CCc1onc(-c3ccc(Br)cc3)c1-2,.,.,-1.4%,.,6%,-2.8,2.9%
Cc1cc(C(=O)NNc2ccc(F)cc2)no1,2.5,-4%[15.4 µM],-1.8%,4%,13%,-5.0,-0.1%
Cc1ccc([N+](=O)[O-])cc1NC(=S)NC(=O)c1ccco1,1.0,-2%,-1.0%,-2%,6%,-3.8,5.3%
Cc1ccccc1/C=C/c1nc2ccccc2c(=O)n1Cc1ccccc1,10,0%,-2.7%,-15%,6%,-3.3,3.7%
COc1cc(/C=C/C(=O)O)cc(S(=O)(=O)NCCO)c1OC,3.5,0%[15.4 µM],-0.3%,9%,17%,-4.9,-1.4%
O=C1CN(c2ccccc2F)C(=O)CN1c1ccccc1F,0.3,?,-1.4%,13%,7%,-3.1,-0.9%
CC(Oc1ccccc1)c1ccnn1S(C)(=O)=O (stereo not drawn),1.0,-41%[inhibitor],-1.5%,-4%,-5%,-1.0,-1.6%
O=C(c1ccccn1)N(c1ccccc1)C1(C(=O)NC2CCCCC2)CCCCC1,4.1,7%[15.4 µM],16%,13%,10%,12,-1.9%
O=C(NCc1cn2ccccc2n1)c1ccc(Br)o1,-3.8,12%,-18%,15%,11%,-3.7,0.4%
N#CCCn1c(=O)c(-c2cccs2)nc2cnc(N3CCOCC3)nc21,?,.,.,29%,.,.,9.0%
CC(C(=O)NC(C)(C)C)N1C(=O)c2cccc3cccc(c23)C1=O (stereo not drawn),-9.5,-1%[15.4 µM],.,10%,-12%,-1.4,0.2%
CCOc1cc(/C=N/NC(=O)c2cc(-c3cccnc3)nc3ccccc23)ccc1O,-7.3,-11%[15.4 µM],.,14%,-27%,0.4,7.8%
O=C(Nc1nccs1)c1cccc(S(=O)(=O)N2CCCC2)c1,3.2,?,-0.9%,9%,10%,0.8,2.8%
O=C(CNC(=O)c1ccccc1)NCCCSc1ccccc1,.,2%[15.4 µM],-0.1%,.,3%,-0.5,-1.2%
Cc1ccc(C(=O)OCC(=O)N(C)c2c(N)n(Cc3ccccc3)c(=O)[nH]c2=O)s1,.,12%[15.4 µM],.,.,6%,1.1,-1.1%
Cc1cc2cc(OCC(=O)O)ccc2n1C,?,17%,-7.3%,22%,11%,-0.2,0.9%
Nc1c(C(=O)NCCN2CCOCC2)c2nc3ccccc3nc2n1CCc1ccccc1F,6.1,-25%,?,-12%,2%,-6.0,.
COc1ccc(NCC(=O)N2CCCC2)cc1Cl,-0.9,3%[15.4 µM],0.9%,0%,-23%,-7.2,-1.2%
Cc1ccc(CC(=O)c2ccc(Cl)cc2)cc1,-0.4,-4%,.,3%,5%,-3.3,6.0%
CCOc1c(Br)ccc2c1sc1nc[nH]c(=O)c12,1.9,-3%,-2.9%,9%,-11%,-2.8,-4.6%
CC(C)CCN1CCN(Cc2cccc(C(F)(F)F)c2)CC1CCO (stereo not drawn),-0.1,10%,6.4%,7%,11%,1.2,0.2%
O=C(OCc1cc(=O)oc2cc(O)ccc12)c1cc(S(=O)(=O)N2CCOCC2)ccc1F,.,1%[15.4 µM],.,.,1%,1.7,-1.1%
O=S(=O)(NCCCN1CCOCC1)c1ccc2c(c1)OCCO2,0.5,0%[15.4 µM],.,17%,25%,0.7,0.9%
Cc1ccc(CN(C(=O)C(F)(F)F)C(C(=O)NC2CCCCC2)c2ccco2)cc1 (stereo not drawn),-0.7,-3%,-1.8%,18%,-11%,-1.9,3.0%
CC(CC(=O)Nc1ccc(F)cc1F)S(=O)(=O)c1ccc2c(c1)NC(=O)CO2 (stereo not drawn),.,?,-1.9%,1%,8%,-5.5,-0.6%
COc1ccc(S(=O)(=O)N(C)C[C@H]2Oc3ncc(C#CC4(O)CCCC4)cc3C(=O)N([C@@H](C)CO)C[C@@H]2C)cc1,.,18%,-0.5%,.,.,-8.6,0.5%
O=C(CSc1nnc(-c2ccccn2)n1Cc1ccccc1)N1CCOCC1,0.0,-9%,-2.7%,14%,-5%,1.0,-1.0%
CCN(CC)CCC(c1cc(OC)c(OC)c(OC)c1)c1c(OC)cc(OC)c2c(C)cc(=O)oc12 (stereo not drawn),-0.8&-3.3,.,-6.9%,8%&-17%,14%,1.4,2.0%
C(=N\Nc1nc(Nc2ccccc2)nc(N2CCOCC2)n1)/c1c[nH]c2ccccc12,-4.5,1%,-1.8%,7%,-24%,-1.6,-3.3%
Cc1cc(C(=O)COC(=O)c2ccc(NC(=O)CC#N)cc2)c(C)n1CC(F)(F)F,.,11%,2.3%,.,.,-0.7,0.2%
C=CCn1c(C)cc(-c2csc(NC(=O)CCc3nc4ccccc4c(=O)[nH]3)n2)c1C,.,5%,-3.0%,.,-16%,-3.8,4.4%
O=C(CSc1nccn1-c1ccccc1)NCc1ccc2c(c1)OCO2,0.9,-6%,-2.6%,4%,2%,-1.4,-1.7%
COC(/C(=N/O)c1ccc(Cl)cc1)c1ccccc1 (stereo not drawn),1.9,10%,.,5%,-16%,1.9,16%
CCOC(=O)C1CCCN(C(=O)c2cccc(S(=O)(=O)N(C)c3ccc(C)cc3)c2)C1 (stereo not drawn),.,-18%,-2.6%,.,-27%,-1.9,1.4%
Cc1cccc(NC(=O)C(C)n2cc([N+](=O)[O-])cn2)n1 (stereo not drawn),2.4,26%[15.4 µM],.,14%,4%,-1.0,-0.5%
CC(=O)c1cccc(OCC(O)CNCCOc2ccc(C)cc2)c1 (stereo not drawn),-0.9,-5%[15.4 µM],.,-18%,.,12,0.5%
CCCCc1ccc(S(=O)(=O)NC2CCS(=O)(=O)C2)cc1 (stereo not drawn),3.7,-13%,-0.3%,-1%,9%,0.0,-0.3%
Cc1ccc(N2CCN(C(=S)Nc3ccccc3)CC2)cc1,0.4,-25%,1.1%,6%,-2%,-4.0,2.1%
CCOC(=O)C1CCN(C(=O)c2ccc3c(c2)NC(=O)/C(=C\c2ccc(C)cc2)S3)CC1,11,?,-1.5%,-5%,-29%,5.4,2.4%
Cc1cc(CNC(=O)C2CCC(=O)N(Cc3cccc(C(F)(F)F)c3)C2)no1 (stereo not drawn),0.3,2%,1.2%,19%,16%,-6.6,-1.0%
COc1ccc(COc2cccnc2N)cc1,-0.1,0%,1.1%,-3%,-2%,-2.5,-0.6%
O=C(OCC(=O)N1CCCC1=O)c1cccc([N+](=O)[O-])c1,-6.9,-36%[inhibitor],-0.4%,17%,13%,-0.3,0.9%
C=CCNCCCOc1ccc(C(C)(C)c2ccccc2)cc1,-2.0,-6%,0.7%,-65%,17%,-5.5,?
COc1ccc(C2C(C(=O)N3CCN(c4ccccn4)CC3)CCC(=O)N2c2cc(OC)c(OC)c(OC)c2)cc1 (stereo not drawn),-3.3,?,.,18%,4%,1.4,3.0%
COc1ccc(CCn2c(C)cc(C(=O)CSc3nnc(N)s3)c2C)cc1,6.6,33%,-0.4%,10%,?,3.7,-0.6%
O=C(Nc1ccc2c(c1)OCO2)C(c1ccc(Cl)cc1)N1CCN(C(=O)c2ccco2)CC1 (stereo not drawn),2.4,1%,0.5%,-1%,1%,-4.2,1.1%
O=C(CN1CCN(Cc2ccc(Cl)cc2)CC1)N/N=C/c1cccs1,4.0,0%[15.4 µM],-1.1%,14%,0%,-0.9,1.0%
Cc1ccc(Nc2cc(C)c3ccc(O)cc3n2)cc1C,3.5,?,-27%,4%,-6%,-2.3,4.5%
# More structures.
SMILES,Menin MLL FP FL,gsp agonist,ClpP mod,Sfp PPTase inh,gsp antagonist,D2 agonist,PINK1 modulator
COc1ccc(NC(=O)[C@@H](NC(=O)N2C[C@H]3C[C@@H](C2)c2cccc(=O)n2C3)C(C)C)cc1OC,-0.3,.,-4.5%,11%,-5%,-5.3,-1.1%
CC(C)(C)c1cc2cccnc2n1Cc1ccccc1,1.6,16%,?,5%,2%,-3.4,0.3%
CCC(=O)N1c2ccc(S(=O)(=O)N3CCN(c4ccccc4Cl)CC3)cc2CC1C (stereo not drawn),.,3%,-0.1%&-1.7%,12%,-1%,-0.4,1.0%&0.7%
Cc1ccc(N(CC(=O)NCc2ccncc2)S(C)(=O)=O)cc1Cl,3.8,-25%,-4.5%,3%,-1%,-1.4,-0.6%
CSc1ccc(C(=O)C2CCCN(C(=O)CCn3cncn3)C2)cc1 (stereo not drawn),0.0,-48%[inhibitor],0.7%,3%,3%,-0.1,-2.5%
